Screens: PubChem BioAssay, Southern Research Specialized Biocontainment Screening Center
Mtb bLac sens: beta-lactam sensitization of Mtb H37Rv; M. tuberculosis H37Rv growth with meropenem, percent inhibition; hits of this screen are not shown here; inhibition, % at 25 µM; hit rate 0.27% among 330,000;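 active = about 74% or more and at least 40 points above the plate without the antibiotic, then above 30% in a dose series; inconclusive = first-round hits that could not be retested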;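 note: growth measured after seven days incubation then overnight dye step; 0% = bacteria only wells and 100% = bacteria with antibiotic; twin plates without the antibiotic show which effects depend on it; some results filed as inactive read as strong as hits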
Active calls of the source: *; ? = inconclusive. Only part of the results is shown (hit frequency here may not be typical).

SMILES | Mtb bLac sens
CCCCc1nc(SCC(=O)Nc2cccc(Cl)c2)n[nH]1 | ?
O=C(COC(=O)Cn1nnc(-c2ccccc2)n1)Nc1ccccc1Br | -2
COc1ccc(OC)c(/C=C/C(=O)N2CCN(S(=O)(=O)c3ccc(C)cc3C)CC2)c1 | -4
CC(=O)c1cccc(OCC(=O)N2CCN(CC(=O)Nc3cccc(F)c3)CC2)c1 | -7
CSc1ccc(C2=CC(=O)C[C@H](c3ccc(F)cc3)C2)cc1 | 2
O=C(NN=Cc1ccccc1OC(F)F)c1cccc(S(=O)(=O)N2CCCC2)c1 | -12
Nc1cc(N)nc(SCC(=O)Nc2cccc(S(=O)(=O)N3CCCCC3)c2)n1 | -2
CC1=C(C(=O)OCc2ccccc2)C(c2cccc3ccccc23)NC(=O)N1CCCC(=O)O (stereo not drawn) | 10
Cc1noc(C)c1NC(=O)Nc1ccc2c(c1)C(=O)N([C@H](C)CO)C[C@H](C)[C@@H](CN(C)S(=O)(=O)c1cccs1)O2 | -6
CCCCn1nc(C(=O)N(C)CC(=O)Nc2ccc(F)c(F)c2F)ccc1=O | -5
O=C(CCNC(=O)c1ccc([N+](=O)[O-])cc1)NC1CCCCCC1 | -3
COc1ccc(C2=CN(Cc3ccccc3)C(c3ccccc3)CC2=O)cc1 (stereo not drawn) | -6
COc1ccc(CCNC(=O)COC(=O)c2cncc(Br)c2)cc1OC | -3
CCN(C(=O)N(CC)c1ccccc1)c1ccccc1 | -1
COC(=O)c1c(NC(=O)CN2C(=O)NC3(CCCCC3C)C2=O)sc2c1CCC2 (stereo not drawn) | 4
CN(Cc1ccc(Cl)s1)C(=O)CNC(=O)CNC(=O)c1ccc(Cl)cc1Cl | -4
COCCN(Cc1ccccc1)C(=O)c1cccc(S(=O)(=O)N2CCCc3ccccc32)c1 | -5
CN(Cc1ccon1)C(=O)CC1C(=O)NCCN1Cc1ccc(Cl)c(F)c1 (stereo not drawn) | -1
COc1ccc(OCCOc2ccc(/C=C3\C(=N)N4N=C(C)SC4=NC3=O)cc2)cc1 | 8
O=C(CSc1ccc(S(=O)(=O)N2CCOCC2)cn1)Nc1ccc(F)c(F)c1 | -11
CN(C)S(=O)(=O)c1ccc(Cl)c(NC(=O)COC(=O)CCC2CCCCC2)c1 | -4
CC1CCN(CC(=O)NC2CCCCC2)CC1 | 0
COc1ccc(S(=O)(=O)N(C)C[C@H]2Oc3ccc(NC(=O)c4ccncc4)cc3C(=O)N([C@H](C)CO)C[C@@H]2C)cc1 | 0
CCn1c(C)nc2cc(C(=O)NNC(=O)CN(C)S(=O)(=O)c3ccc(NC(C)=O)cc3)ccc21 | 4
CN(C)CCCNc1cc(O)c2ncccc2c1 | 4

Looked up above:
Mtb bLac sens, `CCCCn1nc(C(=O)N(C)CC(=O)Nc2ccc(F)c(F)c2F)ccc1=O` : -5
Mtb bLac sens, `O=C(NN=Cc1ccccc1OC(F)F)c1cccc(S(=O)(=O)N2CCCC2)c1` : -12
Mtb bLac sens, `Cc1noc(C)c1NC(=O)Nc1ccc2c(c1)C(=O)N([C@H](C)CO)C[C@H](C)[C@@H](CN(C)S(=O)(=O)c1cccs1)O2` : -6
Mtb bLac sens, `CSc1ccc(C2=CC(=O)C[C@H](c3ccc(F)cc3)C2)cc1` : 2

Going on with the list.
SMILES | Mtb bLac sens
CCN(CC)c1ccc(NC(=O)CCCCC(=O)Nc2ccc(N(CC)CC)cc2)cc1 | -1
CCCc1cc(=O)[nH]c(SCC(=O)Nc2cccc(S(=O)(=O)N3CCCCC3)c2)n1 | -6
COc1cc(Cl)c(C)cc1NC(=O)CN(C)C1CCS(=O)(=O)C1 (stereo not drawn) | 0
CC(NC(=O)C1=CC=CN2CCS(=O)(=O)N=C12)c1ccc(Cl)c(Cl)c1 (stereo not drawn) | -1
COC(=O)[C@]1(CC(C)C)N[C@H](c2ccc(-c3ccc(C(C)=O)cc3)cc2)[C@@H]2C(=O)N(C)C(=O)[C@@H]21 | 0
C[C@@H]1CN([C@H](C)CO)C(=O)c2cc(NC(=O)c3ccncc3)ccc2O[C@@H]1CN(C)C(=O)Nc1ccccc1 | 0
COc1ccc(NC(=O)CN(C)C(=O)C2CCCO2)cc1 (stereo not drawn) | -4
CC(C)(C)c1ccc(OCC(=O)Nc2cccc(S(=O)(=O)NC3=NCCCCC3)c2)cc1 | 2
CCc1ccccc1OCC(=O)Nc1cccc(S(=O)(=O)NC2=NCCCCC2)c1 | -6
Cc1ccc(S(=O)(=O)N(C)CC(=O)OCC(=O)c2ccc3c(c2)NC(=O)CO3)cc1 | -1
Cc1noc(C)c1NC(=O)N(C)C[C@@H]1Oc2c(NC(=O)c3ccncc3)cccc2C(=O)N([C@H](C)CO)C[C@@H]1C | 1
CC(=O)C[C@@H](O)CC(=O)[C@@H]1OC(=O)[C@@H](C)C/C=C\Cc2ccccc21 | -3
COc1ccc(C(=O)c2nccc3cc(OC)c(OC)cc23)cc1OC | 10
C[C@@H]1CN([C@H](C)CO)C(=O)Cc2cc(NS(=O)(=O)c3ccc(F)cc3)ccc2O[C@H]1CN(C)Cc1ccc(C(=O)O)cc1 | 3
COCCN(Cc1nc2ccccc2c(=O)[nH]1)C(=O)COc1c(C)cc(Cl)cc1C | -5
Cc1cc(Br)c(NC(=O)COC(=O)c2ccc[n+]([O-])c2)c(Br)c1 | -3
O=C(COC(=O)CCC1CCCC1)Nc1ccccc1Br | -2
C[C@H](OC(=O)c1[nH]cnc1C(=O)N1CCN(C(=O)OC(C)(C)C)CC1)c1ccccc1 | 10
C=CC[C@@H](CC(=O)N[C@H](CO)Cc1ccccc1)C(=O)NC[C@@H](OC(=O)[C@@H](CC=C)Cc1ccc(F)cc1)c1ccccc1 | -3
Cc1cc(OCC(=O)N2C[C@H]3C[C@@H](C2)c2cccc(=O)n2C3)c2c(C)c(C)c(=O)oc2c1 | -4
CCN(C[C@H]1N[C@@](Cc2ccccc2)(C(=O)OC)[C@H]2C(=O)N(C)C(=O)[C@@H]12)S(=O)(=O)c1ccc(C(C)(C)C)cc1 | 2
CC(=O)c1ccc(N2CCN(C(=O)CN3C(=O)NC4(CCCCC4)C3=O)CC2)c(F)c1 | -2
CCN1C(=NCc2cc(OC)c(OC)c(OC)c2)N[C@@H](c2ccccc2)C(C(=O)OC)=C1C | 1
Cc1cc(SCC(=O)NC2(C#N)CCCCC2)nc2c(C)cccc12 | -3
Nc1c(Cl)c(Cl)nc(C(=O)OCC(=O)NCc2ccccc2)c1Cl | -7

Compounds from the list above with bromine:
SMILES | Mtb bLac sens
O=C(COC(=O)Cn1nnc(-c2ccccc2)n1)Nc1ccccc1Br | -2
COc1ccc(CCNC(=O)COC(=O)c2cncc(Br)c2)cc1OC | -3
Cc1cc(Br)c(NC(=O)COC(=O)c2ccc[n+]([O-])c2)c(Br)c1 | -3
O=C(COC(=O)CCC1CCCC1)Nc1ccccc1Br | -2

(continued)
SMILES | Mtb bLac sens
Cc1ccc(C)c(N(CC(=O)NC2CCCC2)S(=O)(=O)c2ccccc2)c1 | ?
Cc1cccc(C)c1NC(=O)CNC(=O)c1ccc(COc2ccccc2)o1 | -7
Cc1cc2c(cc(C(=O)OC(C(=O)NC3CCCCC3)C(C)C)n2C)o1 (stereo not drawn) | 7
Cc1ccc(S(=O)(=O)N2CCOCC2)cc1NC(=O)COC(=O)C1(C)CC1(Cl)Cl (stereo not drawn) | 3
CC(Sc1ccccn1)C(=O)NC1CCCC1 (stereo not drawn) | -2
CCOc1ccc(CCNC(=O)COC(=O)c2ccncc2)cc1OCC | -5
O=C(CN1CCN(C(=O)c2cccc(-n3cnnn3)c2)CC1)Nc1ccccc1Cl | -6
COCCn1c(C)cc(C(=O)CSc2nnc(C3CC3)n2C2CC2)c1C | 4
CN(C(=O)c1ccc(NC(=O)Cc2cccc(NC(=O)C3CCN(C(=O)C4CC4)CC3)c2)cc1)C1CCCC1 | -10
Cc1ccc(S(=O)(=O)N(C)CC(=O)Nc2ccccc2N2CCCC2)cc1 | 0
CC1CCCC(C)N1C(=O)COC(=O)c1cc(F)c(F)cc1Cl (stereo not drawn) | 77
CN(C(=O)CSc1nnnn1C)C1(C#N)CCCCC1 | -10
CCN(c1ccccc1)S(=O)(=O)c1ccc(OCC(=O)N2CCCC2)cc1 | -1
O=C(CN1C(=O)C(=O)N(CCC2=CCCCC2)C1=O)Nc1ccc(F)cc1F | 0
CC(C)(C)OC(=O)NCCCCCNC(=O)c1nc[nH]c1C(=O)NCc1ccc(CNC(=O)OC(C)(C)C)cc1 | -2
COc1ccccc1NC(=O)CSc1nccc(-c2ccco2)n1 | 10
CC(=O)c1cccc(NC(=O)c2cc(-c3ccncc3)nc3ccccc23)c1 | 4
O=C1OC[C@@H]2CCCN2C(=O)[C@@H](CC(=O)N(CCO)Cc2ccccc2)C/C=C\CC[C@H]1Cc1ccc(F)cc1 | -3
Cc1ccc(N(C)S(=O)(=O)c2cccc(C(=O)OCC(=O)N3CCCC(C)C3)c2)cc1 (stereo not drawn) | -5
Cc1ccc(S(=O)(=O)N(C)C[C@H]2Oc3c(NC(=O)Nc4cccc5ccccc45)cccc3C(=O)N([C@@H](C)CO)C[C@@H]2C)cc1 | 7
O=C(Nc1nccs1)c1nc[nH]c1C(=O)NCc1ccccc1 | -1
CNc1snc(C)c1C(=O)OC(C)C(=O)c1ccc(F)cc1 (stereo not drawn) | -5
CCCn1c(=O)c2[nH]c(-c3ccc(S(=O)(=O)O)cc3)nc2n(CCC)c1=O | -2
Cc1ccc(O)c(N=Nc2nccs2)c1 | 100
CC1CC(C)CN(S(=O)(=O)c2ccc(NC(=O)[C@@H]3CCCN3C(=O)c3cccs3)cc2)C1 (stereo partly drawn) | -2

3 compounds from above, arranged by molecular weight, rising:
SMILES | Mtb bLac sens
O=C(CN1CCN(C(=O)c2cccc(-n3cnnn3)c2)CC1)Nc1ccccc1Cl | -6
Cc1cc(Br)c(NC(=O)COC(=O)c2ccc[n+]([O-])c2)c(Br)c1 | -3
CC1CC(C)CN(S(=O)(=O)c2ccc(NC(=O)[C@@H]3CCCN3C(=O)c3cccs3)cc2)C1 (stereo partly drawn) | -2

Additional structures follow.
SMILES | Mtb bLac sens
CC(C)(CO)NS(=O)(=O)c1ccc2c(c1)Cc1cc(S(=O)(=O)NC(C)(C)CO)ccc1-2 | -2
CCC(=O)c1ccc(OCC(=O)N2CCN(CC(=O)Nc3ccccc3C(F)(F)F)CC2)cc1 | 4
COc1ccc(C(=O)Nc2ccc(Cl)cn2)cc1S(=O)(=O)N1CCCC1 | 7
CCC1(C)NC(=O)N(CC(=O)N2CCN(c3cccc(Cl)c3)CC2)C1=O (stereo not drawn) | -11
COc1ccccc1C(=O)NNC(=O)C(=O)N1CCCCC1 | 2
N#Cc1ccc(NC(=S)NC(=O)C2CCCCC2)cc1 | 3
CO[C@@]12[C@H](COC(N)=O)C3=C(C(=O)C(C)=C(N)C3=O)N1C[C@@H]1N[C@@H]12 | 99
COc1cccc(C(=O)NCCN2CCN(c3ccc(Cl)cc3)CC2)c1 | 13
Cc1noc(C)c1C(=O)OCC(=O)NCc1ccc(Cl)cc1 | 6
CCOC(OCC)c1cc2ccccc2cn1 | -1
COc1cc2c(cc1OC)CN(C(=O)c1ccc(Cl)c(S(=O)(=O)N3CCCC3)c1)CC2 | 3
Cc1ccc(S(=O)(=O)N2CCN(C(=O)COc3ccc(Br)cc3)CC2)cc1 | -4
COc1ccc(Cl)cc1NC(=O)CN(C)CC(=O)N1CC(=O)Nc2ccccc21 | -6
C[C@@H](NC(=O)c1nc[nH]c1C(=O)NC1CCN(C(=O)OC(C)(C)C)CC1)c1ccccc1 | -2
CC(C)(C)c1ccccc1NC(=O)CN1C(=O)NC2(CCCCCC2)C1=O | -6
COc1ccc(NC(=O)Nc2cccc3c2O[C@H](CN(C)S(=O)(=O)c2c(C)noc2C)[C@@H](C)CN([C@H](C)CO)C3=O)cc1 | -10
O=C(COC(=O)c1cc(S(=O)(=O)N2CCOCC2)ccc1F)NCc1ccc2c(c1)OCO2 | -5
CS(=O)(=O)Nc1ccccc1C(=O)NCCSc1ccccc1 | -7
COc1ccc(CCNC(=O)c2cccc(S(=O)(=O)NC(C)c3ccccc3)c2)cc1 (stereo not drawn) | -7
O=C(Nc1ccc(Cl)c(S(=O)(=O)N2CCCC2)c1)c1cc(=O)[nH]c2ccccc12 | -8
CC1CCN(C(=O)CN2C(=O)NC3(CCCCCC3)C2=O)CC1 | 1
N=c1c(C(=O)NCCc2ccccc2)cc2c(=O)n3ccccc3nc2n1CCCN1CCOCC1 | 22
N#CCC(=O)Nc1ccc(C(=O)NNC(=O)c2ccccc2-n2cccc2)cc1 | -8
CSc1ncccc1C(=O)N1CCN(S(=O)(=O)c2ccc3c(c2)OCCO3)CC1 | 2
COc1cc(C(=O)NCCCN2CCCC2=O)cc(Br)c1OCc1ccccc1 | 0
SMILES | Mtb bLac sens
COC(=O)c1c(-c2ccc(S(C)(=O)=O)cc2)sc2ccc(OC)cc12 | 8
CC(C)CN(C(=O)c1cccc(Cl)c1)c1c(N)n(CC(C)C)c(=O)[nH]c1=O | -5
CC1CC(C)CN(C(=O)CSc2ncnc3sccc23)C1 (stereo not drawn) | 7
C[C@H](CO)N1C[C@H](C)[C@@H](CN(C)CC2CCCCC2)Oc2ccc(NC(=O)CCN3CCOCC3)cc2C1=O | 6
CN(CCOc1ccc(Cl)cc1)C(=O)C1=CC=CN2CCS(=O)(=O)N=C12 | -1
Cc1ccc2ncccc2c1 | 5
CC[C@@]1(C(=O)OC)N[C@H](CN(C)S(=O)(=O)c2ccc(OC(F)(F)F)cc2)[C@@H]2C(=O)N(C)C(=O)[C@@H]21 | -2
COc1ccc(C(=O)N/N=C(\C)CC(=O)Nc2ccc(N(C)C)cc2)c(OC)c1 | 1
N#Cc1cccc(NC(=O)CSc2nnc(C3CC3)n2C2CC2)c1 | -2
O=C(CSc1nnc(NC(=O)c2cccc(F)c2)s1)NC1CC1 | -5
Cc1cccc(NS(=O)(=O)c2cccc(C(=O)NCc3ccccc3CN3CCOCC3)c2)c1 | -3
CCc1ccc(S(=O)(=O)Nc2ccccn2)cc1 | -7
Cc1ccc(C(C)C)cc1S(=O)(=O)NC1CC(C)(C)NC(C)(C)C1 | -17
O=C(CSCC(=O)N1CCOCC1)Nc1nc(-c2ccccc2)cs1 | 74
